High-throughput results deposited in PubChem BioAssay by National Center for Advancing Translational Sciences (NCATS).
Sfp inh = inhibitors of Bacillus subtilis Sfp phosphopantetheinyl transferase. Biochemical Sfp PPTase activity, qHTS. Potency, µM, for inactives: max response, negative = inhibition, actives largely listed as inhibitors. 3.5% of 310,000 active. AID 1490; active = well fitted inhibition curve with a large enough effect; inconclusive = small, poorly fitted or top-dose-only effect, or another doubt; inactive = no such curve, though single readings can be large or run the other way;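 also: the enzyme is Sfp with the accession as filed and its product quenches rhodamine fluorescence; potency is read from the fitted curve at half-maximal effect; 0% = enzyme reaction without inhibitor and -100% = no enzyme wells; top concentration of the series not given in the record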
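Sfp 15 nM + cpd, 15 min RT; start w/ rhodamine-CoA 5 uM, BHQ-2-YbbR 12.5 uM (final); 50 mM Hepes pH 7.6, 10 mM MgCl2, 0.01% NP-40, 0.01% BSA; read 525/598 nm at 0 and 30 min.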
gsp ag = agonists of gsp mutant (McCune-Albright syndrome) | AID 624287 | 0.13% of 340,000 active | gsp mutant cells, cAMP HTRF, 30 min; control for the full effect not named in the record | Potency, µM (top dose mostly 76.9 µM), for inactives: at the highest dose activation (cAMP increase), actives largely listed as activators; active = well fitted activation curve with a large enough effect; inconclusive = small, poorly fitted or top-dose-only effect, or another doubt; inactive = no such curve, though single readings can be large or run the other way; cell line not stated here;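 also: phosphodiesterase inhibitor Ro 20-1724 added with compounds to block cAMP breakdown; potency is read from the fitted curve at half-maximal effect; nearly all actives have a fitted effect of over 60% in size; about a fifth of the inactives were tested at one dose only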
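Cells in DMEM/10% FBS with G418 were pretreated with compounds in DMSO plus […] (300 uM stock) for 30 min at 37C. cAMP was measured by HTRF (cAMP-d2 plus anti-cAMP antibody-K) after 30 min at room temperature.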
Menin MLL FP FL = inhibitors of human menin-MLL interaction, wild-type MLL peptide. AID 1766. 290,000 tested, under 10 active. FP activity change, % at 61.4 µM. Fluorescence polarization, fluorescein-MLL peptide displacement from menin; inconclusive = falling polarisation curve, or a change in total fluorescence; inactive = total fluorescence flat and polarisation flat or rising; no compound was filed as active; the % refers to the polarisation; negative = inhibition;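 also: % of control where 0% means no effect; inhibitors lower the polarisation; unlabelled MLL peptide was the positive control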
TRPML1 blocker = blocks the human TRPML1 channel. activity change, negative = inhibition, % (test concentration not listed). TRPML1-inducible cells, Ca2+ dye fluorescence, FDSS; stronger effect = lower value; inhibition of EC80 agonist-evoked calcium signal. Q9GZU1. AID 624415. 0.02% of 390,000 active; in the data active means activity change below about -50%; inconclusive means about -30% to -50%; inactive means above about -30%;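 also: stimulus is agonist 54-4 at its EC80 concentration; % is scaled to controls: 0 for no effect and ±100 for the full control effect; compound concentration not given in the record; the text of the record puts the active cut at -80%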
Target sequence (Q9GZU1 whole entry, looked up): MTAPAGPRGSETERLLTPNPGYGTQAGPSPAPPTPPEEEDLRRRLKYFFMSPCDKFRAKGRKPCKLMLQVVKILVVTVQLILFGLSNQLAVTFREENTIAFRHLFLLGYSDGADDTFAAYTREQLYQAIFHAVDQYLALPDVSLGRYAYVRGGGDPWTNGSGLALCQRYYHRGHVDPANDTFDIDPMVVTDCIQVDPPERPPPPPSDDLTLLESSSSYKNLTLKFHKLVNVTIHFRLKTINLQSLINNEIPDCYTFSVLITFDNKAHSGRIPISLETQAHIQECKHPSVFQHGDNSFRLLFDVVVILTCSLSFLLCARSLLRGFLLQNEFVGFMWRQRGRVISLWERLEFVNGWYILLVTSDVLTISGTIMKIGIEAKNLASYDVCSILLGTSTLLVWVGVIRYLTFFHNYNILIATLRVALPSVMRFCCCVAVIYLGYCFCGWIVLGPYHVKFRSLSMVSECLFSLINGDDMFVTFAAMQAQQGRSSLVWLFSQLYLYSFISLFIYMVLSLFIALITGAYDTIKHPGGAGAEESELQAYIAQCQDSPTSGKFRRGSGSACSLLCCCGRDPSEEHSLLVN
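Calcium fluorescence in TRPML1-DL cells induced overnight with Tet: a 110 s read after compound pin addition, then a 110 s antagonist read after challenge with 54-4 at 4 uM final (EC80).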
TRPV1 potentiator = potentiators of human vanilloid receptor 1 (TRPV1); Q8NER1; TRPV1-expressing cells, Fluo-8 calcium influx, capsaicin EC20 potentiation; host cell line not named in the record; control for the full effect not named in the record; potentiation, % at 8.33 µM; 0.02% of 320,000 active; AID 540277; active means potentiation above 80%; inconclusive means 30% to 80%; inactive means below 30%; also: 0% is about no effect
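TRPV1-expressing cells were cultured overnight at 35.5C and loaded with Fluo-8 calcium dye for 40 to 90 min at room temperature. After a 10 s baseline, compound was added and calcium influx was read kinetically for 3 min (ex 480/em 520 nm).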
gsp antag = antagonists of gsp mutant (McCune-Albright syndrome) | gsp-mutant cells, cAMP HTRF, 30 min; control for the full effect not named in the record | Potency, µM (titrated, usually from 76.9 µM), inactives show at the top dose activity change, negative = inhibition, hits mostly inhibitors | 0.4% of 340,000 active | AID 624288; active = falling curve of any shape with a large fitted effect; inconclusive = falling curve, mostly with a smaller effect; inactive = flat or rising curve; cell line not stated here;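 also: intracellular cAMP measured with PDE inhibitor Ro 20-1724 present during compound exposure; potency is read from the fitted curve at half-maximal effect; % is scaled to controls: 0 for no effect and ±100 for the full control effect; nearly all actives have a fitted effect of over 65% in size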
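Cells, 2000/well, grown 16–24 h in DMEM 10% FBS with 0.5 mg/ml G418, then compounds plus […] (300 uM addition stock), 30 min at 37C. cAMP read by HTRF (cAMP-d2 and anti-cAMP antibody-K in lysis buffer) after 30 min RT.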
ClpP mod = qHTS Assay for Activators of ClpP; Potency, µM (doses to about 57.5 µM), for the others: at the highest dose activity change, negative = active; 1.9% of 340,000 active; ATP-dependent Clp protease proteolytic subunit (Bacillus subtilis (strain 168)), P80244; AID 651965, 2013; purified B. subtilis ClpP, FRET peptide cleavage, 20 min; active = well fitted falling curve with a large enough effect; inconclusive = small, poorly fitted or top-dose-only effect; inactive = no such curve, though single readings can be large or run the other way; also: potency is read from the fitted curve at half-maximal effect; the source files actives as falling curves though it sought activators and does not explain the sign; nearly all actives have a fitted effect of over 65% in size; many hits overshoot -100%
Target sequence (P80244 whole entry, looked up): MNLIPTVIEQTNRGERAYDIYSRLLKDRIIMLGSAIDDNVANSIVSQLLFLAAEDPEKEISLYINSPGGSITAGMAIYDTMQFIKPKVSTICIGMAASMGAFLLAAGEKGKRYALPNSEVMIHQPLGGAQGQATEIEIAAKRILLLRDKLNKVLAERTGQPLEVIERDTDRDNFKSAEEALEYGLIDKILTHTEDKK
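ClpP 10 microg/mL final, pH 8 Tris/KCl buffer with BSA, glycerol, Tween-20; compound pinned in; FRET-FV substrate; RT 20 min; Ex320/Em430; ΔFRET vs ADEP 5.8 microM, DMSO, no enzyme.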
An asterisk follows results filed as active; ? = inconclusive; nt = no result given; [ ] = remark or other dose.

SMILES	Sfp inh	gsp ag	Menin MLL FP FL	TRPML1 blocker	TRPV1 potentiator	gsp antag	ClpP mod
CCc1nc2ccccc2n1Cc1ccc(OC)c(OC)c1	17.5%	-10.7%[15.4 µM]	-0.8	-0.9	-9.1	15.5%	-1.6%
Nc1ncnc2c1ncn2C1OC(CO)C(O)C1N (centres undefined)	16.3%	nt	4.8	nt	-6.1	7.3%	-1.2%
NS(=O)(=O)c1ccc(NC(=O)CN2CCN(S(=O)(=O)c3cccs3)CC2)cc1	nt	-4.5%	nt	20.2	3.2	0.4%	-0.5%
CC(C)NC(=O)Nc1ccc2c(c1)C(=O)N([C@H](C)CO)C[C@H](C)[C@@H](CN(C)C(=O)Nc1ccccc1)O2	nt	nt	nt	25.8	nt	7.3%	-0.5%
O=C(CSCc1ccc(F)cc1)N1CCN(c2ccc(F)cc2)CC1	-0.5%	9.7%	1.6	-4.1	13.9	-0.5%	0.3%
O=C(NCc1ccc(F)c(F)c1)C1CCC(=O)N(CC2CCCCC2)C1 (centres undefined)	4.8%	-23.6%	nt	-10.5	1.4	-8.5%	-1.4%
O=C(NCC(=O)c1ccccc1)OCc1ccc([N+](=O)[O-])cc1	5.5%	?	0.7	-3.8	2.8	-0.4%	nt
Cc1cc(NC(=O)CSc2nc(C(C)C)nc3sc4c(c23)CCCC4)no1	4.6%	0.6%	0.5	12.1	16.2	2.4%	-1.0%
O=C(NNc1ccccc1[N+](=O)[O-])Nc1ccccc1	-2.4%	3.3%	-2.9	-3.7	21.0	0.9%	-0.5%
CCCCN(C(=O)c1ccc(S(=O)(=O)N(C)C)cc1)c1nc2ccccc2s1	8.4%	-0.3%	0.1	-8.6	26.5	-6.8%	-6.8%
CCOC(=O)NC(=O)CSc1ccccn1	12.5%	-8.1%	2.1	14.0	-5.0	6.0%	0.8%
Cc1ccc(CNC(=O)c2ccc(Cl)c(S(N)(=O)=O)c2)n1C	3.9%	4.9%[15.4 µM]	-7.9	30.8	-1.5	-17.3%	-8.6%
O=C(/C=C/c1ccco1)OCc1nnc(-c2ccc(Cl)cc2)o1	-84.3%	1.2%[15.4 µM]	?	46.3	-13.7	-2.2%	1.1%
O=C1CCc2cc(NS(=O)(=O)c3ccc([N+](=O)[O-])cc3)cc3c2N1CCC3	nt	16.2%	nt	0.6	13.3	5.9%	1.0%
O=S(=O)(Nc1cccc(-c2ccc(N3CCCCCC3)nn2)c1)c1ccccc1Cl	-2.9%	?	nt	21.6	9.9	28.2µM*	-3.1%
CC1(C(=O)N(CC(=O)NC2CCCC2)Cc2ccccc2)CC(=O)N=C2C=CC=CN21 (centres undefined)	13.7%	?	3.6	-2.5	-1.4	9.5%	nt
COc1ccc(OC)c2[nH]c(=O)c(CCNC(=O)C(C)C)cc12	13.0%	-4.8%	-3.7	28.0	-25.9	-3.5%	-1.2%
CC(C)C(=O)NCCc1nc2ccccc2n1CCc1ccccc1	24.1%	-4.1%[15.4 µM]	-1.4	2.1	-1.1	-1.6%	nt
Cc1ccc2nsnc2c1S(=O)(=O)N1CCN(C(=O)C2CCCO2)CC1 (centres undefined)	7.2%	13.3%	0.6	-12.6	2.9	-4.8%	-2.0%
O=C(CCc1nc2ccccc2[nH]1)Nc1ccc(F)cc1	28.2%	-11.2%	1.8	-1.7	8.2	0.1%	0.0%
COc1cccc(NC(=O)c2ocnc2C)c1	8.7%	-31.2%	9.1	-14.1	-18.8	-1.5%	-0.6%
CCCC(=O)Nc1cc(OC)c(C(=O)OC)cc1Cl	-4.6%	3.8%[15.4 µM]	0.3	-4.6	-14.6	-4.7%	nt
CC1CC2=C(NC(=S)NC2c2cccc(F)c2)/C(=C/c2cccc(F)c2)C1 (centres undefined)	-4.1%	12.0%[15.4 µM]	2.7	-4.0	6.2	-23.4%	nt
Cc1cc2n(n1)SC(Nc1ccc(F)cc1)N2 (centres undefined)	-3.5%	-35.6%[inhibitor]	2.0	-2.8	-15.0	-1.8%	-7.0%
CCOCCc1nnc(NC(=O)CCc2ccccc2)s1	2.8%	-6.3%	-2.1	-10.5	-3.8	3.3%	-1.9%
Clc1ccccc1-c1nc2ccccc2[nH]1	7.6%	0.1%	0.9	-20.7	nt	-2.1%	nt
CC(C)(C)C1(C)OC(C(N)=O)C(C(N)=O)O1 (centres undefined)	17.4%	-8.3%	1.3	35.4	16.1	-11.6%	-5.0%
O=C(N=Nc1c(O)n(Cc2ccccc2)c2ccccc12)c1ccc(O)cc1	8.1%	-29.7%	1.6	15.6	17.1	-22.6%	1.4%
O=C(CCNc1ccc(Cl)c(C(F)(F)F)c1)c1ccco1	8.8%	1.3%	0.9	23.3	-3.2	-17.8%	0.5%
Cc1ccccc1OCC(=O)NCCCNC(=O)c1cccnc1	-16.4%	-15.3%[15.4 µM]	-2.0	-15.2	0.4	-14.5%	nt
CCN(CC)C(=O)C[n+]1cccc(C(N)=O)c1	-2.1%	-3.5%[15.4 µM]	0.2	3.1	-0.5	9.2%	nt
CCCOc1ccc(S(=O)(=O)n2cc(F)c(=O)[nH]c2=O)cc1	-4.4%	16.1%	-3.1	-25.0	?	?	nt
CC(C)CC(=O)Nc1ccc(-c2nc3ccccc3c(=O)[nH]2)cc1	32.8%	0.0%	3.6	21.5	6.8	4.1%	-10.9%
COc1ccccc1NC(=S)N(C(C)C)C(C)c1ccccn1 (centres undefined)	0.9%	-9.2%[15.4 µM]	3.0	-9.2	18.4	16.1%	-21.6%
CC(=O)NC(Cc1ccccc1F)C(=O)NC1CCN(C(=O)NCc2ccccc2)CC1 (centres undefined)	15.7%	-44.9%[inhibitor]	nt	-1.0	0.4	10.1%	0.3%
O=C(O)Cc1ccc2oc(-c3ccccn3)nc2c1	10.0%	-64.4%[inhibitor]	0.4	11.5	-3.0	6.6%	-28.6%
O=C(CSc1ccc(/C=N/NC(=O)c2cccc(F)c2)o1)Nc1ccccc1	13.5%	-38.8%[inhibitor]	-1.8	8.2	nt	-8.3%	-8.9%
CC(=O)c1cccc(Nc2ncnc3ccc(Br)cc23)c1	6.2%	?	0.5	-1.2	-3.7	-6.0%	nt
O=C(Cc1cccs1)N1CCC(c2nc3c(nnn3Cc3ccccc3Cl)c(=O)[nH]2)CC1	-5.9%	-58.5%[inhibitor]	0.1	0.9	4.5	5.3%	-2.5%
COc1ccc(CNC(=S)Nc2cccc(C)c2)cc1	1.2%	-56.4%[inhibitor]	4.3	-12.9	-15.4	1.3%	0.4%
COc1ccccc1CNC(=O)COC(=O)C1CCN(c2ccc(C(F)(F)F)cn2)CC1	nt	13.1%[15.4 µM]	nt	-5.4	1.2	-1.7%	0.1%
CN(C)c1nc(N)nc(-c2cccnc2)n1	6.3%	9.4%	-2.1	-11.3	-5.9	9.3%	-2.9%
COc1ccc(CCNS(=O)(=O)c2cc(/C=C/C(=O)O)ccc2C)cc1OC	4.2%	?	-1.8	-9.7	2.7	2.7%	nt
O=C(O)c1cc(Br)ccn1	35.5µM*	1.0%[15.4 µM]	1.8	-3.5	6.6	2.5%	nt
Cc1ccc(NC2(C#N)CCCC2)cc1	nt	?	nt	-4.8	nt	8.1%	nt
Cc1nc(-c2cccc(S(=O)(=O)N3CCCCCC3)c2)cs1	4.5%	-49.3%[inhibitor]	-0.2	0.9	-7.3	-23.5%	1.2%
Cn1ncc(Br)c1NC(=O)c1ccco1	2.1%	16.9%[15.4 µM]	-1.1	-2.0	23.7	1.6%	-7.2%
Cc1ccc(C(C(=O)NCC2CCCO2)N(C(=O)c2snc(C(N)=O)c2N)c2ccc(C(C)C)cc2)o1 (centres undefined)	-10.8%	-7.1%[15.4 µM]	-1.7	32.2	-2.2	-6.2%	nt
CCCOc1ccc(Cc2c(Cl)nc(SC)nc2NC)cc1	-5.6%	?	1.5	-17.4	4.7	-20.8%	-0.6%
O=C(Nc1ccc(N2CCCC2)cc1)c1cc(Cl)ccc1Cl	-3.7%	22.9%	0.2	-2.2	-8.0	-0.1%	1.6%

Continuation:
SMILES	Sfp inh	gsp ag	Menin MLL FP FL	TRPML1 blocker	TRPV1 potentiator	gsp antag	ClpP mod
CCOCCn1c(C(C)O)nc2ccccc21 (centres undefined)	13.7%	17.3%	4.7	-2.3	18.2	2.4%	-0.2%
O=C(c1ccc(Cl)cc1)C1CCCN(C(=O)/C=C/c2ccccn2)C1 (centres undefined)	-13.3%	-3.1%[15.4 µM]	2.1	30.9	6.8	-1.7%	0.3%
Cc1ccc(NS(=O)(=O)c2ccc(NC(=O)C(C)Sc3ccc(Cl)cc3)cc2)c(C)c1 (centres undefined)	46.1%	15.1%	0.2	-3.4	-0.8	-12.6%	-0.3%
O=C(NCc1ccc(F)cc1)c1cc(-c2ccccn2)nc2ccc(S(=O)(=O)N3CCOCC3)cc12	nt	-59.3%[inhibitor]	nt	-8.0	nt	nt	-4.0%
CSc1ccccc1OCc1cc(C(=O)N2C[C@H]3CC[C@H]2C3)no1	4.3%	-17.8%	3.0	11.5	-6.3	8.7%	0.6%
CSc1nc2ccc(NC(=O)c3cccs3)cc2s1	nt	-18.2%	nt	-5.9	nt	?	1.6%
Cc1ccc(C2=Nc3c(ccc4ccccc34)C(c3ccncc3)=NN2)cc1	-7.2%	0.4%	0.3	33.3	-25.8	31.6µM*	-2.0%
NNC(=S)Nc1ccc(C(F)(F)F)cc1Cl	-2.3%	-30.0%	3.9	-7.7	1.8	0.3%	-2.2%
CCC(=O)NC(Nc1nc2ccc(C)cc2s1)(C(=O)OC)C(F)(F)F (centres undefined)	17.3%	-35.4%[inhibitor]	6.5	4.8	-7.8	-5.5%	0.2%
O=C(NC1CCCCC1)C1CCN(S(=O)(=O)N2CCCCCC2)CC1	9.7%	3.9%	-0.7	30.8	4.4	-3.4%	0.5%
O=c1cc(N2CCc3ccccc3C2)[nH]c(=O)n1C1CCCCC1	17.9%	-60.2%[inhibitor]	0.1	-8.7	-13.0	5.2%	-2.7%
Cc1ccc2ccc3cccnc3c2n1	nt	7.1%	nt	3.8	nt	11.9%	nt
Brc1ccc(-c2noc(-c3ccccn3)n2)o1	9.2%	?	2.4	-16.2	13.4	6.7%	nt
